# Screening results deposited in PubChem by several laboratories.
# CSC inhib – blocks cancer stem cells; cancer stem cell-like cells viability, luminescence; inhibition, % at 7.5 µM; hit rate 1.1% among 300,000;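 active = mean at 75% or more and at least half the replicates too; inconclusive = mean and replicates disagree; tested in HMLE shEcad cells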;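 note: 0% = median of negative and 100% = median of positive control wells; the first replicate is given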
# Rce1 inhib – blocks yeast Ras-converting enzyme | hit rate 0.27% among 290,000 | yeast membranes, quenched prenylated peptide cleavage fluorescence | Q03530 | calls only;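 active = fall in fluorescence gain of 50% or more versus controls, with final raw signal at or below 3038400; inconclusive = same 50% fall but final raw signal above 3038400; inactive = fall in fluorescence gain under 50%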;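 note: plate controls were neutral control wells for no effect and wells lacking membranes for full effect; tested at 10 µM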
# Target sequence (Q03530 whole entry, looked up): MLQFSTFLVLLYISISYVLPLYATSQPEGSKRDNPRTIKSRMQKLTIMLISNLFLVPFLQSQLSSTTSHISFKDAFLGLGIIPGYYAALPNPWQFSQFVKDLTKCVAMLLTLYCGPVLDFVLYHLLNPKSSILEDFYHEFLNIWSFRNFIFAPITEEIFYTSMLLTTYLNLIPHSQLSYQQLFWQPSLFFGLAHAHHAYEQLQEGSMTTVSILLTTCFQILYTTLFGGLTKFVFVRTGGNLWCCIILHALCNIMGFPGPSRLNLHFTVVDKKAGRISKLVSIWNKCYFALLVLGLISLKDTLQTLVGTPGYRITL
# MT1-MMP act inh – MT1-MMP (human) activation inhibition. P50281. HT1080 RFP-PRO-GFP cells, GFP/RFP ratio fluorescence, overnight; percent of plate control window, DMSO zero. GFP/RFP ratio change, % at 20 µM. hit rate 0.061% among 360,000;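 active = GFP/RFP ratio change of at least 30% with cell ATP level not reduced by more than half and red fluorescence within 50% of control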; note: strong numbers were not always called active
#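 Compound: 20 µM single dose, 1% DMSO / System: HT1080 RFP-PRO-GFP cells / Controls: DMSO and RFP-L50D-GFP cell wells / Read-out basis: GFP/RFP fluorescence ratio / Schedule: overnight compound exposure at 37 °C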
# Yeast UUG start – alters start codon recognition fidelity in yeast. S. cerevisiae UUG-firefly luciferase reporter, luminescence/redox ratio. activity score, % at 18.7 µM. hit rate 0.13% among 350,000. AID 602363;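 active = replicate mean at a twofold rise or more, about +100% in these data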;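 note: firefly luciferase made from a UUG start codon reports start codon fidelity; reporter light over untreated wells divided by growth signal over untreated wells; some hits fall short of that in this replicate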
# Env fusion inh – HIV envelope-mediated fusion inhibition; HeLa-JRFL Env/CEM21 cell fusion, luciferase; inhibition, % at 12.3 µM; hit rate 1.1% among 360,000;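 active = mean replicate inhibition score of at least 50 and every replicate individually at or above 50; inconclusive = only one of the two criteria met; inactive = mean below 50 and not all replicates reaching 50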;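 note: 0% = plate neutral controls and 100% = maraviroc near 300 nM; one replicate is shown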
# PABP FP inh – blocks human PABP binding to poly(A) RNA | P11940 | fluorescence polarization | inhibition, % at 35 µM | hit rate 1% among 290,000 | AID 2014;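 active = 50% or more with normal probe brightness, or confirmed in later tests; inconclusive = above 50% with abnormal brightness, or retests that disagree; inactive = below 50% or failed in later tests; about a fifth of its hits are not listed in these tables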;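 note: calls also rest on retests at 20 µM and on dose response follow-up; controls were probe without protein and protein plus probe with vehicle; some compounds called inactive have numbers as strong as hits; many hits fall short of the cut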
# Target sequence (P11940 whole entry, looked up): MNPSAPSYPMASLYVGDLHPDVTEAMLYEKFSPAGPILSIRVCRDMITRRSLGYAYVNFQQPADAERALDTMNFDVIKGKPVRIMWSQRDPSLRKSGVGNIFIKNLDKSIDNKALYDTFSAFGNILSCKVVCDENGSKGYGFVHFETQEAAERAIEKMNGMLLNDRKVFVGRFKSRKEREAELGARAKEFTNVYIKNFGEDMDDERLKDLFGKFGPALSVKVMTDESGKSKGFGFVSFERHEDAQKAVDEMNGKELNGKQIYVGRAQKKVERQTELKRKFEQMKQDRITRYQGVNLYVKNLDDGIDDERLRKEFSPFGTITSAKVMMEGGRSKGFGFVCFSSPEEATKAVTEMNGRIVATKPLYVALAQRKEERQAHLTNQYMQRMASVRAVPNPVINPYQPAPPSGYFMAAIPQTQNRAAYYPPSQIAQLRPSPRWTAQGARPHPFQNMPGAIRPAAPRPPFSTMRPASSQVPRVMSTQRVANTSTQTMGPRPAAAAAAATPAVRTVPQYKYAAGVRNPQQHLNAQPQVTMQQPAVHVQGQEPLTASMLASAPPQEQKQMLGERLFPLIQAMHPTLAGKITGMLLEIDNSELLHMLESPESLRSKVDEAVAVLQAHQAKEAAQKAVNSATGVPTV
# eIF4H FP inh – inhibitors of RNA binding by human eIF4H. Q15056. eIF4H fluorescence polarization binding assay. inhibition, % at 35 µM. hit rate 0.94% among 290,000;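 active = 50% or more with normal probe brightness, or confirmed in later tests; inconclusive = above 50% with abnormal brightness, or retests that disagree; inactive = below 50% or failed in later tests; about a fifth of its hits are not listed in these tables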;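 note: calls also rest on retests at 20 µM and on dose response follow-up; 0% = protein and probe with vehicle and 100% = probe without protein; strong numbers were not always called active; many hits fall short of the cut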
# eIF4H FP inh retest – further read-out of eIF4H FP inh, marked with its call; inhibition, %; compound at 20 µM; confirmation average;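 mean of two retest wells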
# PABP FP inh retest – recorded beside PABP FP inh, whose call it bears; inhibition, %; compound at 20 µM; confirmation repeats;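 mean of two retest wells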
# MT1-MMP act inh RFP – recorded beside MT1-MMP act inh, whose call it bears; RFP signal change, %; measured here: RFP expression control read;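 0 = vehicle wells; hits needed this value within 50% of zero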
# * = called active by the depositor; i = inactive; u = inconclusive; x = no result given. This is a subset; rates above refer to the full screens.
SMILES,CSC inhib,Rce1 inhib,MT1-MMP act inh,MT1-MMP act inh RFP,Yeast UUG start,Env fusion inh,PABP FP inh,eIF4H FP inh,others
O=C(NCc1cccnc1)c1ccc(Cl)c(Cl)c1,-16,i,5,0,-11,x,16,-6,
Cc1cc(Cl)c(S(=O)(=O)N/N=C/c2ccc3c(c2)OCO3)c(Cl)c1,19,i,0,-2,-21,x,1,-4,
CSc1ccccc1OCc1cc(C(=O)N(C)Cc2cc(C)[nH]n2)no1,-12,i,1,-1,1,15,-1,-1,
CSc1ccc(Cl)c(C(=O)OCC(=O)Nc2ccccc2OC(F)F)c1,-7,i,2,2,2,x,4,2,
O=C(Nc1ccc(NC(=O)c2ccco2)cc1)c1ccco1,-2,i,-4,0,-6,-420,6,-12,
CCN1CCN(CCNC(=O)c2ccc(/C=C3\Sc4ccccc4N(Cc4ccccc4F)C3=O)cc2)CC1,20,i,1,-7,x,6,10,-9,
O=C1NN(c2ccccc2)C(=O)C2C3C=CC(C4CC34)C12 (stereo not given),17,i,4,0,-16,x,-8,-17,
COc1ccc(NC(=O)CC2C(=O)N(c3cccc(OC)c3)C(=O)N2C(C)C)cc1 (stereo not given),-23,i,2,-2,-27,x,50,-11,
O=S(=O)(/N=C(/NC(=S)Nc1ccccc1)c1ccccc1)c1ccc(Cl)cc1,-10,i,0,-5,-32,-52,-4,9,
O=C(CCn1nc(-c2ccc(Cl)cc2)ccc1=O)N1CCN(c2ccccc2)CC1,6,i,2,-5,3,10,-6,92,eIF4H FP inh retest=4;PABP FP inh retest=-4
O=C(CSc1nnnn1-c1cccc2ccccc12)NC(C(=O)O)(c1ccccc1)c1ccccc1,-6,i,1,0,x,8,4,-1,
COc1ccccc1CNS(=O)(=O)c1ccc2c(c1)CCCN2C(C)=O,-6,i,1,-1,-1,-3,-4,-11,
COc1cccc(N(CC(=O)N2CCCC2)S(C)(=O)=O)c1,-2,i,1,3,4,4,1,-12,
CCN(CC)c1ccc(C2N(C(=O)N3CCOCC3)CCN2S(=O)(=O)c2ccc(C)cc2)cc1 (stereo not given),x,i,2,2,-4,-31,-7,-2,
CC(C)Oc1ccc(C2c3c(oc4ccccc4c3=O)C(=O)N2CCCN2CCOCC2)cc1 (stereo not given),x,i,1,3,-8,-86,-4,3,
CCCOc1ccccc1OCC(=O)Nc1cccc(S(=O)(=O)NC2=NCCC2)c1,x,x,-2,-3,-18,-3,x,x,
COc1ccccc1C(=O)CSc1n[nH]c(N)n1,-5,i,0,2,x,-89,8,-1,
O=C(O)/C(=C\c1cccc(C(F)(F)F)c1)c1ccc(S(=O)(=O)N2CCCC2)s1,x,x,3,-1,-11,-2,x,x,
CCOc1ccc(C2CC(c3cccc(Cl)c3)n3nc(N)nc3N2)cc1 (stereo not given),-27,i,-1,-5,-16,15,-2,0,
CCOC(=O)N1CCN(c2ccc([N+](=O)[O-])cc2F)CC1C (stereo not given),-10,i,3,-8,x,-18,27,-1,
CCCS/C(N)=N/N=C/c1ccccc1O,-10,i,6,3,x,x,-6,-11,
O=C(CN1CCN(C/C=C/c2ccccc2)CC1)NCc1ccc(Cl)cc1,7,i,-6,-4,-8,-25,0,-4,
O=C(Nc1ncn[nH]1)c1cccc(S(=O)(=O)N2CCOCC2)c1,3,i,3,6,x,-2,1,-2,
O=C(Cc1noc2ccccc12)Nc1ccc(Cl)cc1,1,i,2,7,-8,x,12,3,
NS(=O)(=O)c1cc([N+](=O)[O-])ccc1NCc1cccnc1,-2,i,-1,5,-14,1,2,-1,
SMILES,CSC inhib,Rce1 inhib,MT1-MMP act inh,MT1-MMP act inh RFP,Yeast UUG start,Env fusion inh,PABP FP inh,eIF4H FP inh,others
O=C1CN(C(=O)CCN2CCOCC2)C(c2ccccc2)c2cc(Br)ccc2N1 (stereo not given),-3,i,2,3,-39,x,2,0,
O=C(CC1NC(=O)NC1=O)Nc1ccccc1 (stereo not given),-5,i,4,8,x,-79,0,-1,
Clc1cc(NCc2cccs2)ccc1N1CCOCC1,-2,i,1,0,-11,-22,7,-4,
CN(C)c1ccc(/C=N/NC(=O)c2ccccn2)cc1,-5,i,3,-1,x,-1,-2,3,
CC#CCNCc1ccccc1,-10,i,2,6,-16,-112,6,4,
Cc1cc(C)cc(C(=O)NCC(=O)OCC(=O)NCc2ccco2)c1,-4,i,-7,-1,x,-3,-22,2,
COc1ccccc1CN1CCCC(CN(CCN(C)C)C(=O)c2ccc(C)cc2)C1 (stereo not given),15,i,1,0,-16,14,0,4,
OC(COc1ccc(Cl)cc1)CN1CCN(c2ccccc2)CC1 (stereo not given),4,i,-1,6,-12,2,-6,-12,
Cc1ccc(-n2c(-c3ccccc3)c[nH]c2=S)cc1,5,i,6,-5,x,34,3,-3,
CCOC(=O)c1c(CC(C)C)csc1NC(=O)COC(=O)C1=NNC(=O)CC1,-8,i,-5,-6,x,0,x,x,
COc1ccc(C2C3=C(CC(C)(C)CC3=O)Nc3nc(C)nn32)cc1OC (stereo not given),-22,i,-1,-3,35,12,-3,5,
Cc1oc2ccc(Br)cc2c(=O)c1-c1nn[nH]n1,-4,i,6,3,x,-2,4,-5,
Cn1c(O)c(N=Nc2ccccc2[N+](=O)[O-])c2ccccc21,-9,i,-1,0,-23,-34,14,20,
COc1cc2c(cc1OC)C1=C(C#N)CN(CC(=O)O)CN1CC2,-7,i,-5,2,-11,17,30,32,
Cc1cc(C)c(S(=O)(=O)N2CCC(C(=O)NCc3ccncc3)CC2)c(C)c1,1,i,-1,-2,-14,-5,1,-5,
N#Cc1cnn2c(C(F)(F)F)cc(-c3ccccc3)nc12,12,i,2,1,-15,11,1,-7,
c1ccc(-c2cccc(-c3ccccc3)n2)cc1,-10,i,-1,-4,-2,-14,-3,-14,
CC1CC(C)CN(C(=O)C2CCN(C(=O)Nc3ccccc3)CC2)C1 (stereo not given),5,i,3,2,-8,-64,x,x,
CCOC(=O)CSc1nc(-c2ccccc2)ns1,-4,i,-2,4,x,-26,-2,-8,
CCN=C(NCC)SC1CC(=O)N(c2cccc(OC)c2)C1=O (stereo not given),-6,i,6,-1,13,-42,-9,-2,
CCOC(=O)c1c(S(=O)(=O)NCC(=O)Nc2ccc(OC)cc2)c(C)n(C)c1C,-6,i,-1,1,3,2,x,x,
CS(=O)(=O)c1cccc(C(=O)Nc2ccc3c(c2)OCCCO3)c1,-5,i,3,1,-14,-34,-1,2,
CCOC(=O)c1c(O)c(O)c(C(=O)OCC)n1-c1ccccc1,-8,i,4,6,x,3,9,1,
COc1ccc(CCNC(=O)C2CCN(c3nn4c(=O)cc(C)nc4s3)CC2)cc1OC,1,i,2,1,5,x,-4,9,
CN(C)CCCn1c(SCC(=O)N2CC(=O)Nc3ccccc32)nc2ccccc2c1=O,-13,i,-5,1,x,-20,-1,4,
SMILES,CSC inhib,Rce1 inhib,MT1-MMP act inh,MT1-MMP act inh RFP,Yeast UUG start,Env fusion inh,PABP FP inh,eIF4H FP inh,others
COc1ccc(NC(=O)c2ccc(-c3c(C)noc3C)c3ccoc23)cc1,x,x,7,-5,-39,10,x,x,
CC(=O)N1CCc2cc(S(=O)(=O)N3c4ccccc4CC3C)ccc21 (stereo not given),-6,i,-2,-19,-5,x,0,3,
Cc1cccc(Oc2ccc(C(=O)NC3CCSC3=O)cn2)c1C (stereo not given),-5,i,5,3,-7,x,0,-2,
COc1cc2c(cc1NC(=O)CSc1nc3cc(Cl)ccc3s1)oc1ccccc12,12,i,-1,-1,-15,-5,9,-2,
COc1cc2c(cc1OC)[C@@H]1Cc3ccc(OC)c(OC)c3CN1CC2,-11,i,-2,-3,-17,8,-2,1,
Cc1cccn2c(=O)c3cc(S(=O)(=O)c4ccccc4)c(=N)n(CC4CCCO4)c3nc12 (stereo not given),7,i,x,x,x,x,6,-3,
O=C(COc1ccc(Br)cc1CO)Nc1ccc(F)cc1,3,i,-5,-4,-9,x,-8,-2,
O=C(COC(=O)C1CCN(S(=O)(=O)c2cccs2)CC1)c1ccccc1,1,i,0,6,-23,-7,0,-5,
COCCC1CCCCN1C(=O)c1cccc(OC2CCN(S(C)(=O)=O)CC2)c1 (stereo not given),-17,i,-3,1,0,x,0,-1,
CC(=O)N[C@@H](Cc1c[nH]c2ccccc12)C(=O)NC1CCCc2ccccc21 (stereo not given in full),8,i,-2,3,-2,1,-6,4,
Cc1ccc(OCC(=O)N/N=C/c2cccc3cccnc23)cc1,2,x,2,0,-22,3,-5,8,
COc1ccc(C(=O)Nc2ccc3c(c2)CCCN3C(=O)c2cccs2)c(OC)c1,-12,i,6,-7,-18,-1,-1,-8,
Cc1ccc(-c2noc(-c3ccccc3C(=O)N3CCCC3)n2)cc1,-12,i,-2,-3,-11,x,-5,-4,
Nc1c(C(=O)N/N=C/c2ccccc2Cl)oc2nc(-c3ccccc3)cc(-c3ccco3)c12,-8,i,-24,0,-11,25,u,u,
COc1cc(CN2CCCCCC2)cc(OC)c1,-5,i,-1,-1,-8,12,2,4,
O=C(c1ccc2oc(CCc3ccccc3)nc2c1)N1CCC(O)CC1,-8,i,1,1,-23,-39,9,6,
CCN1CCN(Cc2ccc(NC(=O)c3ccc(C)c(NC(=O)c4cccc(-c5cn[nH]c(=O)c5)c4)c3)cc2C(F)(F)F)CC1,40,i,-5,4,29,x,0,-3,
CSc1nc2ccc(S(=O)(=O)N3CCOCC3)cc2s1,6,i,0,1,x,x,3,-7,
COc1ccc(-n2c(C)nc(=O)c(-c3ccccc3)c2C)cc1,-3,x,-9,-6,-11,-5,16,11,
CCOCCCNC(=O)C1(O)c2ccccc2NC(=O)N1c1ccc(Cl)c(Cl)c1 (stereo not given),-18,i,0,3,10,-2,0,2,
CC(C)C(NC(=O)c1ccccc1NC(=O)c1ccccc1)C(=O)NCCCn1ccnc1 (stereo not given),8,i,2,3,-5,x,-6,-3,
Cc1ccccc1NC(=O)Nc1ccccc1N1CCCCC1,-5,i,-3,-9,0,8,-8,-4,
CCOC(=O)Cc1nn(Cc2nc(-c3ccc(C)cc3)cs2)c(=O)c2ccccc12,-5,i,4,-2,x,18,-7,-4,
Cc1cc(NC(=O)CSc2ccc3nnc(-c4ccc(F)cc4)n3n2)no1,0,i,1,0,10,x,-1,1,
Fc1cc(F)cc(NC(=S)NCCCN2CCOCC2)c1,-5,i,1,2,1,6,-6,-4,
Cc1cc(NS(=O)(=O)c2ccc(NC(=O)Cc3ccccc3)cc2)nc(C)n1,-7,i,-2,1,2,9,5,2,
Cc1c(C(=O)O)sc2ncnc(N3CCCCC3C)c12 (stereo not given),-3,i,3,4,-17,1,-3,3,

# An excerpt from above in order of number of heavy atoms, low to high:
SMILES,CSC inhib,Rce1 inhib,MT1-MMP act inh,MT1-MMP act inh RFP,Yeast UUG start,Env fusion inh,PABP FP inh,eIF4H FP inh,others
Cc1c(C(=O)O)sc2ncnc(N3CCCCC3C)c12 (stereo not given),-3,i,3,4,-17,1,-3,3,
Cc1ccc(OCC(=O)N/N=C/c2cccc3cccnc23)cc1,2,x,2,0,-22,3,-5,8,
CC(=O)N1CCc2cc(S(=O)(=O)N3c4ccccc4CC3C)ccc21 (stereo not given),-6,i,-2,-19,-5,x,0,3,
O=C(COC(=O)C1CCN(S(=O)(=O)c2cccs2)CC1)c1ccccc1,1,i,0,6,-23,-7,0,-5,
CCOCCCNC(=O)C1(O)c2ccccc2NC(=O)N1c1ccc(Cl)c(Cl)c1 (stereo not given),-18,i,0,3,10,-2,0,2,
CCN1CCN(Cc2ccc(NC(=O)c3ccc(C)c(NC(=O)c4cccc(-c5cn[nH]c(=O)c5)c4)c3)cc2C(F)(F)F)CC1,40,i,-5,4,29,x,0,-3,
